miR-21 FLuc: miR-21 reporter, rising signal. HeLa miR-21 FLuc reporter, luciferase, 48 h. Potency, µM (doses to about 38.3 µM), inactives show at the highest dose reporter change, positive = more light. AID 2288. 340,000 tested, under 10 active; active = well fitted rising curve with a large enough effect; inconclusive = small, poorly fitted or top-dose-only effect; inactive = no such curve, though single readings can be large or run the other way;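 note: % of control where 0% means no effect; miR-21 action dims this reporter so a rising signal means less miR-21 action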
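HeLa cells stably expressing CMV-driven firefly luciferase with a downstream miR-21 binding sequence, endogenously expressing miR-21, were treated with titrations (up to about 40uM final) for 48 hours at 37 degree Celsius. Luciferase luminescence was read after lysis.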
GLA inh pH 4.5: inhibitors of human alpha-galactosidase A at pH 4.5; purified enzyme, 4-MU-alpha-Gal fluorescence, pH 4.5; activity change, negative = inhibition, % at 105 µM; 230,000 tested, under 10 active; AID 1467; inconclusive = small, poorly fitted or top-dose-only inhibition, or a rising curve; inactive = flat fitted curve, though single readings scatter; no compound was filed as active;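 note: 0% = full activity with enzyme and -100% = basal without enzyme; dose as in the result columns while the protocol names 77 µM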
Target sequence (P06280 whole entry, looked up): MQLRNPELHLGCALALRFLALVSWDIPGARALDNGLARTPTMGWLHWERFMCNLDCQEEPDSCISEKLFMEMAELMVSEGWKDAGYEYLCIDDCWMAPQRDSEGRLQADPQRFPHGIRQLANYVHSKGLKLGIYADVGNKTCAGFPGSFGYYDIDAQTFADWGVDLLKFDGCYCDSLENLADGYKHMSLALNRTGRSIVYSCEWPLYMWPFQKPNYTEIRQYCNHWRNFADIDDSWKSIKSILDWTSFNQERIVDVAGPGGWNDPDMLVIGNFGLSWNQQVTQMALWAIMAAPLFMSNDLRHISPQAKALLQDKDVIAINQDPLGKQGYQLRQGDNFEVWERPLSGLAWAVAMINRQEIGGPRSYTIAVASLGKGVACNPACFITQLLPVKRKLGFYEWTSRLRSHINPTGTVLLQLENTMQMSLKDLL
Rango release inh: prevents RanGTP from dissociating the Rango-importin beta complex; Biochemical FRET Rango-importin beta, RanGTP-induced dissociation; Potency, µM (doses to about 46.1 µM), for the others: at the top dose activity change, negative = inhibition; hit rate 0.071% among 340,000; AID 540253; active means falling FRET ratio curve, often poorly fitted, with flat reads before Ran was added; inconclusive means other falling curves, or compound fluorescence or quenching; inactive means flat or rising ratio curve;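 note: potency is the fitted concentration of half-maximal effect; % of control where 0% means no effect; nearly all actives have a fitted effect of over 45% in size; -100% = wells without RanGTP and RCC1; the record marks most hits as doubtful in a second field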
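Compounds preincubate 5 min with complex of recombinant Rango and importin beta in PBS with 1 mM DTT. Ran (0.6 uM) loaded with 2 mM GTP plus 0.2 uM RCC1 starts dissociation; FRET is recorded 45 min later.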
Rango-impB inh: prevents formation of the Rango-importin beta complex; Q14974; Rango CFP/YFP FRET sensor + importin beta, 45 min; Potency, µM (top dose mostly 92.2 µM), for the others: at the highest dose inhibition of complex formation; hit rate 0.031% among 340,000; active = rising FRET ratio curve, often small or poorly fitted; inconclusive = mostly compound fluorescence or quenching in the first reads; inactive = flat curves in all reads;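 note: potency is the fitted concentration of half-maximal effect; 0% = DMSO wells and 100% = buffer wells lacking importin beta; nearly all actives have a fitted effect of over 15% in size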
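Inhibition scored from the CFP 486 nm/YFP 530 nm FRET ratio 45 min after adding 0.125 microM importin beta to 50 nM Rango biosensor preincubated 5 min with compound (room temperature, PBS with DTT, Tween-20, BSA). No-importin wells as positive control.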
The depositor's hits bear a star; ? = inconclusive; nt = not tested or not shown; & = joins results of further samples; [ ] = another dose, or the depositor's remark. Some of the compounds tested (hit frequency here may not be typical).

SMILES	miR-21 FLuc	GLA inh pH 4.5	Rango release inh	Rango-impB inh
Clc1nc(NCc2cccnc2)nc(N2CCOCC2)n1	-5%	-3	-3%	?
OC(COc1ccc(Cl)cc1Cl)Cn1ccnc1 (centres undefined)	-12%	nt	5%	-2.5%
COc1ccc(-c2nnn(CC(=O)N(Cc3cccs3)C(C)C(=O)NCCC(C)C)n2)cc1OC (centres undefined)	7%	-16	4%	-1.5%
Cc1cc(C)n(/N=C/c2ccccc2O)c(=O)c1	-1%	11	0%	-6.4%
Cc1cccc2cc(COC(=O)C(C)C)c(=O)[nH]c12	-5%	-5	13%	-1.3%
Cc1ccnc(NC(=O)CNC(=O)c2ccccc2)c1	nt	nt	8%	-1.1%
COC(=O)c1c(C)n(-c2ccc(OC)cc2)c2ccc(O)cc12	22%	0	1%	-0.5%
CCOc1ccc2nc(NC(=S)NCc3ccccc3)sc2c1	-15%	3	0%	-6.4%
CCOC(=O)/C=C1\SCC(=O)N1CC(=O)Nc1cccc(F)c1	-1%	-11	8%	-0.2%
O=C(Nc1ccccc1)C(=O)c1c[nH]c2ccccc12	-49%	nt	-1%	?
Cc1cc(C)cc(NC(=O)c2cc(C)nc3ccccc23)c1	-1%	nt	-5%	3.6%
COc1ccc(C(=O)N/C(=C\c2cn(C)c3ccccc23)C(=O)OCCN(C)C)cc1	-6%	-8	-15%	?
Cc1cccc(OCC(=O)NC2CCCC2)c1	-28%	nt	-6%	5.0%
Cc1cc(O)c(C(C)C)cc1N=Cc1ccccc1O	7%	9	1%	-3.5%
O=C(NC1=NCCS1)c1ccc2c(c1)C(=O)N(Cc1ccco1)C2=O	1%	1	0%	1.9%
COCc1cc(C)nc(SCc2nc3ccccc3c(=O)[nH]2)c1C#N	-8%	-2[21.1 µM]	?	?
COc1ccc(S(=O)(=O)N2CCOCC2)cc1NC(=O)CSc1nc(C)c(C)c(C)n1	nt	nt	-1%	-2.6%
CCOC(=O)c1c(C)n(C)c2ccc(OCC(O)CN(CC)CC)cc12 (centres undefined)	1%	-2	2%	0.4%
Nc1nonc1-n1nnc(C(=O)N/N=C/c2cccc(F)c2)c1CN1CCCC1	nt	nt	17%	1.9%
C=C(C)CSc1nc(N)c2c3c(sc2n1)CCC3	-50%	4	-21%	?
N#Cc1c(NC(=O)CSC2=NCCS2)sc2c1CCCC2	-3%	-5	-3%	2.7%
COc1ccc(C(C(=O)NCC2CCCO2)N(C(=O)CNC(=O)c2ccco2)c2ccc(C)c(C)c2)cc1OC (centres undefined)	-1%	nt	4%	-0.7%
CCOc1ccc(CN2CCNC(=O)C2CC(=O)NCCCC2CCCC2)cc1 (centres undefined)	-19%	nt	-6%	0.0%
CCN(CC)c1ncc(C)c(=O)[nH]1	-3%	2	-1%	0.6%
CC(=O)Nc1ccc(NC(=O)COC(=O)c2c(-c3ccccc3)noc2C)cc1	nt	nt	-25%	-6.0%
SMILES	miR-21 FLuc	GLA inh pH 4.5	Rango release inh	Rango-impB inh
COC(=O)C1=C(N)n2c(s/c(=C\c3cccnc3)c2=O)=C(C(=O)OC)C1c1cccnc1 (centres undefined)	-3%	-3	nt	nt
Clc1ccc(-n2ncc3c(NCc4ccco4)ncnc32)cc1	-22%	-5	-8%	2.8%
COc1ccc(C(=O)C[n+]2cc(-c3ccc(OC)cc3)n3c2CCCC3)cc1	22%&26%	4&-6	25%&-5%	?
NC[C@H](Cc1ccccc1)NCCc1cc(C(F)(F)F)cc(C(F)(F)F)c1	nt	nt	-11%	-7.3%
Cc1cc(NC(=O)CS(=O)(=O)c2cn(Cc3ccc(F)cc3)c3ccccc23)no1	26%	3	3%	0.5%
CCC1(c2ccccc2)NC(=O)N(CC(=O)Nc2ccccc2C(=O)NC2CC2)C1=O (centres undefined)	nt	nt	12%	-1.5%
O=C(CCN1C(=O)/C(=C/c2ccc(F)cc2)SC1=S)Nc1cccnc1	-3%	nt	-8%	-2.5%
O=C(CSc1ncnc2scc(-c3ccccc3)c12)N1CCN(c2ccccc2F)CC1	-11%	0	8%	-4.1%
COc1ccc(CC2(C)OC(c3ccncc3)=NN2C(C)=O)cc1 (centres undefined)	4%	-2	2%	0.7%
CC1Cc2cc(S(=O)(=O)N3CCN(c4ccc(Cl)cc4)CC3)ccc2N1C(=O)C1CC1 (centres undefined)	2%	nt	-1%	-0.9%
Cc1cc(NC(=O)CSc2nc3c(sc4ccccc43)c(=O)n2CCc2ccccc2)n[nH]1	0%	4	2%	1.6%
CC(C)C(NC(=O)CN1C(=O)c2ccccc2C1=O)c1ccccc1 (centres undefined)	0%	nt	5%	0.9%
CC(C)(C)c1cc(-c2n[nH]c(=S)n2-c2ccc(Cl)cc2)n[nH]1	0%	-2	18%	-1.1%
CC(OC(=O)CCc1nc2ccccc2[nH]c1=O)c1ccccc1 (centres undefined)	-1%	2	-18%	0.1%
CCC(C(=O)Nc1ccccc1)c1ccccc1 (centres undefined)	-2%	-3	11%	-2.3%
CC1(C)C(=O)OC(c2ccccc2)C(C)(C)C1=O (centres undefined)	4%	-4	35%	-4.4%
CC1CCCCCCC1OC(=O)c1ccccc1C(=O)O (centres undefined)	nt	nt	9%	-0.6%
CS(=O)(=O)c1ccc(Cl)c(NC(=O)COC(=O)CCc2c[nH]c3ccccc23)c1	nt	nt	0%	1.4%
Cc1ccc2oc(Nc3nc(C)cc(C)n3)nc2c1	-23%	-2	9%	-2.9%
Cn1cc(Cl)nc1C(O)c1ccccc1 (centres undefined)	-2%	4	5%	-1.2%
Cc1cc2ccccn2c1C(=O)c1cc([N+](=O)[O-])cc([N+](=O)[O-])c1	-2%	-22	26%	3.2%
O=C(Cc1ccccc1)Nc1cccc(N2CCCC2)c1	-11%	-1	2%	0.2%
CC(=O)c1c(C)[nH]c(C(=O)OCC(=O)Nc2ccccc2Cl)c1C	7%	9	6%	0.2%
CC(=O)c1cc(-c2ccc(F)cc2)n(CCC(=O)NC(C)(C)C)c1C	-2%	-1	-12%	-2.2%
CN(C)c1ccc(N=Cc2ccco2)cc1	-35%	6	6%	3.3%

Five records picked at random from those above:
SMILES	miR-21 FLuc	GLA inh pH 4.5	Rango release inh	Rango-impB inh
COc1ccc(C(=O)C[n+]2cc(-c3ccc(OC)cc3)n3c2CCCC3)cc1	22%&26%	4&-6	25%&-5%	?
CC1CCCCCCC1OC(=O)c1ccccc1C(=O)O (centres undefined)	nt	nt	9%	-0.6%
O=C(CSc1ncnc2scc(-c3ccccc3)c12)N1CCN(c2ccccc2F)CC1	-11%	0	8%	-4.1%
CC(C)C(NC(=O)CN1C(=O)c2ccccc2C1=O)c1ccccc1 (centres undefined)	0%	nt	5%	0.9%
CC(OC(=O)CCc1nc2ccccc2[nH]c1=O)c1ccccc1 (centres undefined)	-1%	2	-18%	0.1%

Next compounds follow:
SMILES	miR-21 FLuc	GLA inh pH 4.5	Rango release inh	Rango-impB inh
COc1ccc(OC)c(C2C(C#N)=C(N)N(N(C)C)C3=C2C(=O)CC(C)(C)C3)c1 (centres undefined)	-3%	nt	-1%	0.3%
O=c1[nH]c(C2CCCCC2)nc2ccccc12	-10%	-5	4%	-2.5%
CCC1CCCCN1CCCn1c(=S)[nH]c2ccccc2c1=O (centres undefined)	-6%	-13	?	0.0%
COc1ccc(Cl)cc1C(=O)OCC(=O)NC1CCCC(C)C1C (centres undefined)	nt	nt	-1%	1.3%
COc1cc(NC(=O)C2CCN(S(=O)(=O)c3cccs3)CC2)cc(OC)c1	nt	nt	1%	1.0%
Cc1ccc(N2C(=O)CC(Sc3nc4ccccc4o3)C2=O)cc1Cl (centres undefined)	?	-10	0%	5.0%
CC(C)CN1C(Nc2ccccc2)=NC[C@@H]1C	-2%	nt	-9%	2.8%
COc1ccc(Cl)cc1NC(=S)N1CCCCCC1	-2%	nt	-24%	0.2%
Cc1cc(C)cc(NC(=O)COC(=O)c2cccc(S(=O)(=O)N3CCCCC3)c2)c1	nt	nt	-6%	3.3%
CCCc1nc2sc(C(=O)OCC)c(N)c2c2c1COC(C)(C)C2	-3%	?	10%	-5.8%
COc1ccccc1CC(=O)O/N=C(\N)c1cccc([N+](=O)[O-])c1	-19%	4	8%	0.3%
COc1ccc(CCNC(=O)NCCc2c[nH]c3ccccc23)cc1OC	-8%	nt	7%	1.0%
CCC(=O)Nc1cc(-c2nc3ncccc3o2)ccc1Cl	-7%	nt	0%	1.3%
CCC1CCCCN1S(=O)(=O)c1ccc(NC(=O)c2cccs2)cc1 (centres undefined)	12%	-6	-13%	-0.7%
Cc1ccc(C(=O)Nc2ccon2)cc1S(=O)(=O)N1CCCCCC1	-23%	-4	7%	-1.7%
CCc1noc(C)c1C(=O)OCC(=O)NCc1ccccc1OC	nt	nt	-4%	0.8%
COCC(=O)Nc1cc(C(=O)Nc2ccccc2)ccc1Cl	-49%	2	nt	nt
COc1ccc(N(CC(=O)NCCSCc2ccccc2Cl)S(C)(=O)=O)cc1Cl	-5%	nt	-7%	-0.5%
O=Cc1ccc(Sc2ncccn2)o1	-1%	-11	-1%	-2.1%
CC(=O)Nc1ccc(NC(=O)c2cc(C)nn2-c2ccccc2)cc1	-9%	5	-3%	?
CCOc1cc(/C=C2/SC(=S)N(C)C2=O)ccc1Oc1ccc([N+](=O)[O-])cc1[N+](=O)[O-]	0%	-23	nt	nt
CCOc1ccc(C(=O)Nc2c3c(nn2C(C)(C)C)CSC3)cc1OCC	-1%	-11	-1%	-4.4%
CC(=C1C(=O)c2ccccc2C1=O)N1CCN(c2ccc(F)cc2)CC1	-13%	0	-5%	3.0%
CCOc1ccc(NC(=O)CSc2nnc(C3CC3)n2C2CC2)cc1	nt	nt	3%	3.4%
Nc1[nH][nH]c(=O)c1N=Nc1ccccc1	nt	nt	-2%	0.0%
SMILES	miR-21 FLuc	GLA inh pH 4.5	Rango release inh	Rango-impB inh
COc1cc2c(cc1NC(=O)c1ccc(C(C)(C)C)cc1)CCCC2	-7%	7	-6%	-1.1%
CCC(=O)N1CCC(c2ccc(OC)cc2)=N1	-63%	1	-9%	-1.4%
Cc1ccc(SCC(=O)OCC(=O)N(C)CC(=O)Nc2ccc(F)cc2)cc1C	nt	nt	-10%	1.1%
COc1ccc(NC(=O)CCNS(=O)(=O)c2cc(Br)ccc2Br)cc1S(N)(=O)=O	5%	nt	0%	-0.4%
COc1ccccc1OCCn1cc(C(=O)O)c2ccccc21	-31%	0	-5%	-2.4%
Cc1ccccc1S(=O)(=O)c1cc(C#N)c(=O)[nH]c1N	0%	3	-13%	?
CCCc1nnc(NC(=O)CCCN2C(=O)c3ccccc3C2=O)s1	5%	4	-4%	2.3%
Cc1ccc(NC(=O)C/C(N)=N/OC(=O)c2ccccc2)cc1	5%	2	34%	-0.3%
COc1ccc(S(=O)(=O)Nc2ccc(S(=O)(=O)N3CCCCC3)cc2)cc1OC	-11%	-2	14%	-2.9%
Cc1ccc(S(=O)(=O)N2CC(O)C[C@H]2C(=O)OCC(=O)N2CCN(c3ccc(F)cc3)CC2)cc1C (some centres undefined)	nt	nt	3%	?
COc1ccc(OC)c(N(CC(=O)N2CCC(C)CC2)S(=O)(=O)c2ccc(OC)c(OC)c2)c1	-1%	-5	-19%	0.3%
COc1ccccc1N1CCN(S(=O)(=O)c2ccc3c(c2)oc(=O)n3C)CC1	-2%&0%	nt	-1%	3.5%
CN1CCN(C(=O)C2=C[C@H](c3ccc(C(F)(F)F)cc3)C[C@H](OCc3ccc(CO)cc3)O2)CC1	-7%	-2	-10%	-2.1%

A few values from the results shown:
COc1ccc(NC(=O)CCNS(=O)(=O)c2cc(Br)ccc2Br)cc1S(N)(=O)=O in Rango release inh = 0%
COc1ccc(S(=O)(=O)Nc2ccc(S(=O)(=O)N3CCCCC3)cc2)cc1OC in GLA inh pH 4.5 = -2
COc1ccccc1N1CCN(S(=O)(=O)c2ccc3c(c2)oc(=O)n3C)CC1 in miR-21 FLuc = -2%&0%
COc1ccccc1OCCn1cc(C(=O)O)c2ccccc21 in GLA inh pH 4.5 = 0
CN1CCN(C(=O)C2=C[C@H](c3ccc(C(F)(F)F)cc3)C[C@H](OCc3ccc(CO)cc3)O2)CC1 in Rango-impB inh = -2.1%
CCC(=O)N1CCC(c2ccc(OC)cc2)=N1 in Rango release inh = -9%

High-throughput results deposited in PubChem BioAssay by National Center for Advancing Translational Sciences (NCATS).
